Rango complex inh = prevents formation of the Rango-importin beta complex; 0.031% of 340,000 active; Potency, µM (titrated, usually from 92.2 µM), for the others: at the highest dose inhibition of complex formation; Q14974; Rango CFP/YFP FRET sensor + importin beta, 45 min; active = rising FRET ratio curve, often small or poorly fitted; inconclusive = mostly compound fluorescence or quenching in the first reads; inactive = flat curves in all reads;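 note: potency is the fitted concentration of half-maximal effect; 0% = DMSO wells and 100% = buffer wells lacking importin beta; nearly all actives have a fitted effect of over 15% in size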
Target sequence (Q14974 whole entry, looked up): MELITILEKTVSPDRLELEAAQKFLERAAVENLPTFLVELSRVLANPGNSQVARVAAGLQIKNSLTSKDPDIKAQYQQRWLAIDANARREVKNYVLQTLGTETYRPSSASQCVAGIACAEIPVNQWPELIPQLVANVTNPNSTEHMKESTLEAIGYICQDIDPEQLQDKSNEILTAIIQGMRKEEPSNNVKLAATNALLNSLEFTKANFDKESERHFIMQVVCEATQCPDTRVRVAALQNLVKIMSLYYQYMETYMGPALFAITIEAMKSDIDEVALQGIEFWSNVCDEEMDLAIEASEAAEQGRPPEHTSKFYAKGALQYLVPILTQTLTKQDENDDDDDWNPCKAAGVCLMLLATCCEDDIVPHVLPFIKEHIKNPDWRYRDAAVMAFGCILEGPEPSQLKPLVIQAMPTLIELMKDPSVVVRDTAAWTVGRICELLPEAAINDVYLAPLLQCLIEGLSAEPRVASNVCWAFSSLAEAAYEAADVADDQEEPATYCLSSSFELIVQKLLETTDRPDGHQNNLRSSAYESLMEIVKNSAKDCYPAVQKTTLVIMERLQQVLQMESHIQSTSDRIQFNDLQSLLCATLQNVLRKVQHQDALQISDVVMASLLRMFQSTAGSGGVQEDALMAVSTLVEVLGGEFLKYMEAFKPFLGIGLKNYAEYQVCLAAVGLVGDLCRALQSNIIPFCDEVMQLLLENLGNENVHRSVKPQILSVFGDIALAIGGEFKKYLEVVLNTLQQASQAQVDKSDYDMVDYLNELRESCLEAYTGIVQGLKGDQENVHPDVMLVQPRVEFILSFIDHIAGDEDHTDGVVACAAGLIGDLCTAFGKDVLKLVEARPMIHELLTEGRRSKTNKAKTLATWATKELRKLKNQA
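FRET biosensor Rango (snurportin 1 IBB between N-terminal EYFP and C-terminal Cerulean), 50 nM in PBS/1 mM DTT/0.02% Tween-20/0.1% BSA, preincubated 5 min RT with compound; 0.125 microM importin beta added, 45 min RT, CFP/YFP FRET ratio read.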
miR-21 reporter = raises the signal of a miR-21 reporter. HeLa miR-21 FLuc reporter, luciferase, 48 h. Potency, µM (doses to about 38.3 µM), for inactives: top-dose reporter change, positive = more light. 340,000 tested, under 10 active; active = well fitted rising curve with a large enough effect; inconclusive = small, poorly fitted or top-dose-only effect; inactive = no such curve, though single readings can be large or run the other way;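 note: % of control where 0% means no effect; miR-21 action dims this reporter so a rising signal means less miR-21 action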
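HeLa cells endogenously expressing miR-21, stably carrying CMV-driven firefly luciferase with a downstream miR-21 binding site, 2000 cells/well. Titrations up to approximately 40 uM, 48 hours; luciferase luminescence read.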
Rango release inh = inhibitors of RanGTP-induced Rango-importin beta complex dissociation; 0.071% of 340,000 active; Potency, µM (doses to about 46.1 µM), without a hit: at the top dose activity change, negative = inhibition; O95149+P62826; Biochemical FRET Rango-importin beta, RanGTP-induced dissociation; active means falling FRET ratio curve, often poorly fitted, with flat reads before Ran was added; inconclusive means other falling curves, or compound fluorescence or quenching; inactive means flat or rising ratio curve;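 note: potency is the fitted concentration of half-maximal effect; % of control where 0% means no effect; nearly all actives have a fitted effect of over 45% in size; -100% = wells without RanGTP and RCC1; the record marks most hits as doubtful in a second field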
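Recombinant Rango FRET biosensor (EYFP–snurportin 1 IBB–cerulean CFP10) at 0.1 uM premixed with 0.25 uM importin beta in PBS, 1 mM DTT, 0.02% Tween-20, 0.1% BSA. Compound added 5 min; RanGTP-RCC1 (0.6 uM Ran, 2 mM GTP, 0.2 uM RCC1) then triggers release, read at 45 min.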
GLA inh pH 4.5 = blocks human alpha-galactosidase A at pH 4.5; P06280; purified enzyme, 4-MU-alpha-Gal fluorescence, pH 4.5; activity change, negative = inhibition, % at 105 µM; 230,000 tested, under 10 active; AID 1467; inconclusive = small, poorly fitted or top-dose-only inhibition, or a rising curve; inactive = flat fitted curve, though single readings scatter; no compound was filed as active;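 note: 0% = full activity with enzyme and -100% = basal without enzyme; dose as in the result columns while the protocol names 77 µM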
Active calls of the source: *; ? = inconclusive; · = no result given; & = joins results of further samples. This is a subset; the hit share may differ from the screen's.

The line under a structure holds: Rango complex inh | miR-21 reporter | Rango release inh | GLA inh pH 4.5
> Cc1ccc(S(=O)(=O)N/N=C/c2ccccc2F)cc1[N+](=O)[O-]
 : -4.1% | -6% | -22% | ·
> COC(CN(C(=O)CCl)C(C(=O)NC1CCCC(C)C1C)c1ccc(C)cc1)OC (stereo unspecified)
 : -2.5% | -5% | 3% | 5
> O=C1OCCC1Sc1nnc(-c2cccc(Br)c2)o1 (stereo unspecified)
 : -5.8% | -3% | 0% | 5
> CC(C)(C)NC(=O)CSC(=Nc1ccc(F)cc1)NC#N
 : ? | -20% | -14% | -1
> CC(NC(=O)CCN1C(=O)c2ccccc2S1(=O)=O)c1ccccc1 (stereo unspecified)
 : 0.0% | · | -3% | ·
> Cc1cc(C(=O)N/N=C/c2ccc(Br)o2)n[nH]1
 : 0.1% | -25% | -19% | ·
> CCN(CC)c1ccc(/C=C/c2cccc[n+]2C)c(OC)c1
 : ? | ? | ? | ·
> CC(=O)SC1CC(=O)N(c2ccc(C(C)(C)C)cc2)C1=O (stereo unspecified)
 : 1.0% | -4% | 11% | -1
> CCCn1nc(CC(=O)OCC)c2ccccc2c1=O
 : 0.0% | -5% | -8% | 1
> COc1ccc(CCn2c(=N)c(C(=O)NC3CCCC3)cc3c(=O)n4ccccc4nc32)cc1OC
 : ? | -11% | -16% | ·
> CC1(C)CC(=O)N(c2cccc(Cl)c2)C(=O)C1
 : 1.7% | -2% | -5% | ·
> O=C(O)/C=C/C(=O)Nc1ccc(S(=O)(=O)N2CCCC2)cc1
 : 3.8% | 0% | -2% | 5
> Cc1ccc(NC(=S)NC2CC3CCC(C2)N3Cc2ccco2)cc1C (stereo unspecified)
 : 0.0% | -3% | 18% | 6
> CS(=O)(=O)c1ccc(NC(=O)CCN2C(=O)C3CCCCC3C2=O)cc1 (stereo unspecified)
 : 0.7% | · | 1% | ·
> NC(=O)C1CCN(CCC(=O)Nc2ccc(Br)cc2)CC1
 : -0.5% | 0% | -10% | 3

4 of the entries above in order of their number in Rango complex inh, largest number first.
SMILES | Rango complex inh
O=C(O)/C=C/C(=O)Nc1ccc(S(=O)(=O)N2CCCC2)cc1 | 3.8%
CC1(C)CC(=O)N(c2cccc(Cl)c2)C(=O)C1 | 1.7%
Cc1cc(C(=O)N/N=C/c2ccc(Br)o2)n[nH]1 | 0.1%
CC(NC(=O)CCN1C(=O)c2ccccc2S1(=O)=O)c1ccccc1 (stereo unspecified) | 0.0%

More structures:
The line under a structure holds: Rango complex inh | miR-21 reporter | Rango release inh | GLA inh pH 4.5
> CN(CC(=O)Nc1ccc(F)cc1)C(=O)Cn1c(=O)oc2ccccc21
 : -5.1% | · | 1% | ·
> C=CCOC(=O)C1=C(C)NC(C)=C(C(=O)OCC=C)C1c1ccc(C)o1
 : 0.5% | 2% | -15% | ?
> O=C(NCCCN1CCOCC1)c1ccccc1NS(=O)(=O)c1ccc(Br)cc1
 : 0.3% | -7% | 2% | 1
> COC(=O)CCc1c(C)c(C(=O)c2ccco2)c2ccccn12
 : ? | -7% | ? | -4
> CCOc1ccccc1NC(=O)C1CCCN(S(=O)(=O)c2cccc3cccnc23)C1 (stereo unspecified)
 : 5.5% | 3% | -16% | 0
> Cn1c(=O)c(Nc2ccc(O)cc2)c2c3c(cccc31)C(=O)c1ccccc1-2
 : 0.7% | 2% | -1% | -2
> CC1c2nc3ccccc3n2C(CC(=O)NC2CC2)C(=O)N1Cc1ccccc1 (stereo unspecified)
 : 0.8% | 1% | 8% | -2
> COC(=O)c1ccc(N2CCOCC2)c(NC(=O)c2ccc3c(c2)OCCO3)c1
 : 1.9% | 1% | -7% | ·
> O=C(CN1C(=O)c2ccccc2S1(=O)=O)N1CCN(c2cccc(Cl)c2)CC1
 : 0.4% | · | 4% | ·
> CC12CC3OC3CC1CCC1C2CCC2(C)C1CCC21OCCO1 (stereo unspecified)
 : -2.0% | · | 2% | ·
> CC(C)Oc1ccc(CN2CCCC(CO)(Cc3ccc(F)cc3)C2)cc1 (stereo unspecified)
 : -1.1% | -2% | 6% | ·
> CCC(=O)N1CCC(C(N)=O)(N2CCCCC2)CC1
 : -4.2% | 1% | ? | 7
> C=CCOC(=O)C1=C[C@H](c2csc3ccccc23)C[C@H](OCc2ccc(CO)cc2)O1
 : -0.3% | · | -13% | ·
> CCC1(C)NC(=O)N(CC(=O)Nc2cc(C)on2)C1=O (stereo unspecified)
 : 1.7% | · | 24% | ·
> C=CCNc1nc(SCC=C)nc2ccsc12
 : -5.0% | -19% | -26% | 5
> C/C(=N\OC(=O)c1ccc(Cl)cc1)c1sc(-c2ccccc2)nc1C
 : -2.9% | -30% | 22% | -1
> O=Cc1c(N2CCCCCC2)nc2ccccn2c1=O
 : 1.7% | -9% | 1% | -4
> CCOc1ccc(N(CC(=O)NCc2ccco2)S(=O)(=O)c2ccc(OC)c(OC)c2)cc1
 : -1.4% | -12% | 5% | -7
> O=C(CCCOC(=O)c1ccc(O)cc1O)c1ccc(Br)cc1
 : -1.0% | · | -3% | ·
> CCCCOc1ccc(C(=O)NCC(=O)N2CC=C(c3ccccc3)CC2)cc1
 : -4.3% | · | 15% | ·
> Cc1cc(C)nc(SCC(N)=O)n1
 : -4.1% | -1% | -3% | -6
> CN1CCN(C(=O)c2ccccc2NC(=O)c2ccc(C(C)(C)C)cc2)CC1
 : 1.0% | -10% | -7% | ·
> COc1ccc(Cl)cc1CSc1n[nH]c(C)n1
 : -0.8% | -14% | 3% | -14
> CC1(C)CC(=O)c2cnc(NC3CC3)nc2C1
 : -0.4% | -2% | -1% | 2
> O=C(CC1CCCCC1)NCc1ccc(Cl)cc1
 : ? | -41% | 0% | ·
> Cc1cc(NC(=O)Nc2cc(Cl)sc2Cl)no1
 : 3.3% | -22% | 6% | ·
> C/C=C/C=N/NC(=O)CN(c1ccc(Br)cc1)S(=O)(=O)c1ccccc1
 : 3.9% | -12% | 2% | -5
> CC(C)(C)NC(=O)CN(C(=O)CSc1nnc(COc2ccccc2)o1)c1cccc(F)c1
 : 5.6% | 1% | 2% | 1
> COc1ccc(CCNC(=O)c2sc(=S)n(C)c2N)cc1
 : -2.4% | -2% | -8% | 4
> CCOc1ccc(Oc2cc(C)nc(SC)n2)nn1
 : 2.8% | 2% | 26% | 3
> Cc1c(C(=O)NCc2ccc3c(c2)OCO3)sc2nc(-c3ccccc3)cn12
 : -1.6% | -10% | -9% | 0
> COc1ccccc1N1CCN(CCCCCCOc2ccc(F)cc2)CC1
 : -1.5% | 0% | 5% | -15
> CC(=O)OC(C(=O)NCc1ccco1)c1cccnc1 (stereo unspecified)
 : 2.7% | -6% | -7% | -9
> Cc1noc(C)c1COc1ccc(C(=O)Nc2ccccc2)cc1
 : -1.3% | -2% | 13% | 1
> COC(=O)c1ccc(NC(=O)Nc2ccccc2F)cc1
 : 0.4% | -9% | 1% | -3
> O=C(CC12CC3CC(CC(C3)C1)C2)NC(=S)Nc1ccc(CN2CCOCC2)cc1
 : 0.9% | 3% | 0% | -1
> Cc1nc2ccccc2c(=O)n1NC(=O)c1ccc(Cl)cc1
 : 2.6% | -1% | -12% | ·
> COC(=O)c1ccc(CSc2nnc3sc4ccccc4n23)o1
 : 0.6% | -12% | 0% | 5
> COc1ccc(Cn2cnc3c([N+](=O)[O-])c(C)c(C)cc32)cc1
 : 1.7% | -5% | -12% | -10
> O=C(CNS(=O)(=O)c1ccccc1)OCC(=O)c1ccc(OC(=O)c2ccccc2)cc1
 : 0.9% | -9% | -2% | 5
> CCC(=O)N1CCc2cc(OC)c(OC)cc2C1COc1ccccc1OC (stereo unspecified)
 : -2.6% | -10%&-9% | 2% | 0
> Cc1ccccc1OCc1nc2ccccc2c(=O)n1N
 : 1.8% | -88% | -9% | 1
> CC(C)CC(=O)Nc1nc2ccc(S(=O)(=O)N3CCOCC3)cc2s1
 : -3.0% | 19% | 5% | 3
> Cc1ccc(C(=O)N/N=C\c2ccc3c(c2)OCO3)cn1
 : -4.3% | -8% | 9% | ·
> Cc1ccc(C(=O)N2CCC(C(=O)NC3CCCC3)CC2)cc1
 : 2.2% | -1% | 8% | ·
> COc1ccc(CN2C(=O)c3cccnc3C2=O)cc1S(=O)(=O)N1CCOc2ccc(C)cc21
 : -3.4% | 1% | 6% | ·
> CCN(CC)C(=O)CSc1nc(O)cc(=O)n1-c1ccccc1OC
 : -5.8% | 1% | -4% | 1
> CCCn1c(=O)c2ccccc2n2c(SCC(=O)/C(C#N)=C(\C)N)nnc12
 : 0.5% | -1% | -6% | 8
> CC(C)c1ccc(NC(=O)c2ccc(NC3=NC4CS(=O)(=O)CC4S3)cc2)cc1 (stereo unspecified)
 : -3.1% | -19% | 14% | ·
> Cc1ccsc1CN(C)C(=O)CCc1nnc(COc2ccccc2)o1
 : 0.1% | -45% | 0% | 10
> CCOC(=O)N1CCN(C(=O)C(NS(=O)(=O)c2cccc3nsnc23)c2ccccc2)CC1 (stereo unspecified)
 : 2.2% | -7% | -7% | 1
> COc1ccc(NC(=O)[C@H](C)NC(=O)C2CCN(S(=O)(=O)c3ccc(C)cc3)CC2)cc1
 : -0.9% | 3% | -1% | ·
> CSc1nc(NCC(C)O)c2c3c(sc2n1)CN(C)CC3 (stereo unspecified)
 : ? | -12% | ? | ·
> CCOc1ccccc1C(=O)N/N=C/c1cccc2cccnc12
 : -0.8% | 7% | -6% | -10
> Cc1ccc(S(=O)(=O)NNc2ccccc2)c(C)c1
 : -1.2% | -10% | 0% | 11
> COc1ccc(C(=O)NCc2ccc3[nH]c(C)cc3c2)cc1OC
 : -3.6% | 1% | -19% | 15
> CC1CCc2sc(NC(=S)NC(=O)c3ccccc3)c(C#N)c2C1 (stereo unspecified)
 : -1.7% | -60% | -1% | -6
> O=C(COc1ccc([N+](=O)[O-])cc1Cl)N(C1CCCCC1)C1CCS(=O)(=O)C1 (stereo unspecified)
 : 7.1% | · | -16% | ·
> Cc1noc(C)c1CSc1nnc(-c2ccncc2)n1-c1cccc(Cl)c1C
 : -4.2% | -5% | 3% | 2
> O=C(C1=NN[C@@H]2C(=O)N(c3cccc(C(F)(F)F)c3)C(=O)[C@H]12)c1cnccn1
 : -0.4% | -2% | -11% | -3

(further entries)
The line under a structure holds: Rango complex inh | miR-21 reporter | Rango release inh | GLA inh pH 4.5
> O=C(CSc1n[nH]c(-c2ccccc2)n1)Nc1ccc(Br)cn1
 : 3.9% | -7% | 2% | 5
> CN(C)CCNC(=O)CN1C(=O)COc2ccc(C(C)(C)C)cc21
 : 1.0% | -5% | -2% | -2
> O=c1c2ccccc2nc(-c2ccc(Cl)cc2Cl)n1O
 : 4.6% | -2% | -1% | -20
> COc1ccc(C(=O)Nc2ccc(NC(=O)C3CCCCC3)nc2)cc1
 : 0.9% | 9% | -1% | ·
> O=C(CSc1nnc(Cc2ccccc2)o1)Nc1ccc(N2CCOCC2)cc1
 : -1.7% | · | 14% | ·
> O=C(NCc1csc(-c2ccccc2)n1)c1ccco1
 : 0.5% | -44% | 5% | 7
> COC(=O)n1c(=O)oc2ccc(S(=O)(=O)N3CCCCC3)cc21
 : -1.9% | -2% | -1% | -4
> COc1ccc(C(=O)NCc2ccncc2)cc1S(=O)(=O)N1CCOCC1
 : -1.7% | · | -14% | ·
> Cc1ccc(CN2[C@@H](CC(C)C)COCCS2(=O)=O)cc1
 : 5.1% | · | 21% | ·
> CC(C)CNC(=S)NC(=O)c1ccccc1Cl
 : -1.3% | -37% | 9% | -4
> COc1cc(C2=NC(CO)(CO)CO2)cc(OC)c1OC
 : -1.8% | -2% | 15% | -6
> OC1CCN(C(=S)Nc2ccc(Oc3ccccc3)cc2)CC1
 : 0.5% | -14% | -6% | 5
> Cc1cccc(CN2CCC(CNC(=O)Cn3ncc4c([nH]c5ccccc54)c3=O)CC2)c1
 : 0.7% | -6% | 22% | ·
> O=C(NCc1nc2ccccc2[nH]1)c1c(F)c(F)c(F)c(F)c1F
 : -1.3% | 0% | 4% | -5
> O=C(COc1ccccc1)NNc1nc2c(F)cc(F)cc2s1
 : -0.7% | -4% | 19% | -1
